Compound activity deposited in PubChem BioAssay by ICCB-Longwood Screening Facility, Harvard Medical School.
HCMV NEC inh: inhibitors of HCMV UL50-UL53 interaction, biochemical, HTRF. actives 0.15% (n = 190,000). inhibition, % (test concentration not listed). normalized percent inhibition;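 active means both replicates at 50% or more, plus weaker picks with an unusually low signal ratio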;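 further: stock transfer was 100 nL into about 20 µL; 0% = negative control wells and 100% = wells with untagged competitor protein; inactives centre near -12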
GIV Gai3 FP: inhibitors of GIV peptide binding to Galpha-i3, primary screen, biochemical, fluorescence polarization, FITC-GIV GBA peptide, rat Galphai3 | 90 min; stronger effect = lower value; scaled: aluminum fluoride 0%, vehicle 100% | percent of control (FP), % (no concentration beside the values) | Guanine nucleotide-binding protein G(i) subunit alpha-3 (Rattus norvegicus), P08753 | actives 0.42% (n = 210,000);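 active means replicate mean at 85% of control or lower, very high polarization wells dropped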;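 further: wells of about 15 µL received 100 nL stock; the first replicate is given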
Target sequence (P08753 whole entry, looked up): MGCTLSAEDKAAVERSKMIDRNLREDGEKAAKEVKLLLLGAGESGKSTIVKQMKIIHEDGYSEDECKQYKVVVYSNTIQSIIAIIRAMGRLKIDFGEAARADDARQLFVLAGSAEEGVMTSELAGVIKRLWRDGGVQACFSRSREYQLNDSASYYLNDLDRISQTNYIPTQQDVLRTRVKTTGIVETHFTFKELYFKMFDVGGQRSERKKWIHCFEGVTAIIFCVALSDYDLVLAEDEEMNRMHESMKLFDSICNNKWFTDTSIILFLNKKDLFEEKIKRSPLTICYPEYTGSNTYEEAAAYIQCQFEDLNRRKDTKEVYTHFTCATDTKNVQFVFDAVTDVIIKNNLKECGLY
Sa growth 42C: S. aureus growth inhibition at 42 and 30 °C, primary screen, LtaS inhibitor project, RN4220, two temperatures; OD600, 20 h, 42 °C; stronger effect = lower value; relative growth, % (test concentration not listed); actives 0.53% (n = 170,000);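 active means growth at 42 °C up to 50% and 20 or more points under that at 30 °C, or under 10% at both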;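 further: 300 nL library stock went into each well; scaled to the means of positive and negative controls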
Sa growth 42C second temp: second read-out of Sa growth 42C, no call of its own (marks repeat the call); relative growth, %; measured here: growth at 30 °C;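 optical density after 20 h as mean of two plates; 100% = untreated growth and lower means inhibition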
* = called active by the depositor; . = no result given; & = joins results of further samples.

SMILES	HCMV NEC inh	GIV Gai3 FP	Sa growth 42C	Sa growth 42C second temp
Cc1ccc(COC2CN(C(=O)c3cccc(C)c3)C2)cc1	0	101	.	.
CN1C(=O)S/C(=C\c2ccccc2Br)C1=O	-55	97	85	91
CCn1c(=O)cc(OCC(=O)Nc2cccc(OC)c2)c2ccccc21	.	103	120	79
COc1ccc(CCNC(=O)c2ccc(NC(=O)c3nsc4ccccc34)cc2)cc1OC	-14	105	.	.
COC(=O)C1C(=O)C=C(Nc2ccc(F)cc2F)CC1c1ccc(OC)cc1 (stereo unspecified)	-16	102	98	79
CC(=O)n1c(=O)n(C(C)=O)c2ccccc21	-11	.	93	87
NC(=O)CCSc1ccc(Cl)cc1	14	.	123	94
COc1cccc(-c2ccc(=O)n(CC(=O)N3CCN(c4ccccc4)CC3)n2)c1	-76	102	110	100
Cc1c(C(=O)NC2CC2)sc2ncnc(N3CCN(C)CC3)c12	-43	103	.	.
CC1(C)CC2CC(C)(CN2CC(=O)C(C#N)c2ccccc2)C1 (stereo unspecified)	-15	.	98	86
Cc1nc2nc(-c3ccc(Cl)cc3)nn2c(C)c1CC(=O)NC(C)C	-24	104	.	.
CC(C)NC(=O)Cn1c(=O)n(CC2CCC(C(=O)NCc3ccccc3)CC2)c(=O)c2sccc21 (stereo unspecified)	-11	103	.	.
O=C(COC(=O)c1cnc(Cl)c(Cl)c1)c1ccccc1	-20	.	86	85
NC(=O)c1ccsc1NC(=O)Cn1[nH]c(=O)c2ccccc2c1=O	-20	.	94	66
COc1ccc(OC)c(CNC(=O)CN=C2NS(=O)(=O)C(c3ccc(Cl)cc3)=C2C)c1	-69	185	.	.
Clc1ccc(-c2ccc(CNCc3ccccn3)o2)cc1	-21	105	.	.
c1ccc(CN2CCN(C3=Nc4cccc5cccc3c45)CC2)cc1	-94	.	62	43
O=C1CC(c2ccccc2)Cc2[nH]c(=O)c(C(=O)Nc3cccc(F)c3)cc21 (stereo unspecified)	.	98	90	89
Cc1oc(-c2ccc(C(=O)O)cc2)nc1CSc1ccc(Cl)cc1	.	104	91	75
CCC1(C)CC(=O)c2c(ccc3oc(C(=O)NCc4ccc(C)cc4)c(C)c23)O1 (stereo unspecified)	9	101	.	.
Cc1ccc(S(=O)(=O)C(CNC(=O)c2ccccc2F)c2cccs2)cc1 (stereo unspecified)	.	106	85	82
CC(=O)Nc1cccc(-c2nc3ccccc3[nH]2)c1	-13	.	95	96
NC(=O)c1nnn(Cc2ccc(Cl)cc2)c1N	-17	107	94	88
Cc1ccc(Nc2nc3nonc3nc2Nc2ccccc2OC(=O)c2ccccc2)cc1C	-28	109	.	.
Cc1ccc(Cn2ccsc2=NC(=O)COC(=O)C2CC2)cc1	-3	.	91	95
CCNc1cc(N2CCCC2)c2noc3c2c1C(=O)c1ccccc1-3	.	201	100	83
Cc1ccc(Nc2ncnc3ccccc23)cc1	14	109	98	76
Cn1cc(-c2nc(-c3cccnc3)no2)c(=O)c2cc(F)c(N3CCOCC3)cc21	-25	101	.	.
CCSc1nnc2n(CC)c3ccccc3n12	.	102	96	78
COc1ccc(Cl)cc1NC(=O)CN1C(=O)CSc2ccc(S(=O)(=O)N3CCCC3)cc21	.	110	76	66
Cc1sc2ncnc(SC3CCOC3=O)c2c1C (stereo unspecified)	-4	.	86	94
CCCn1c(Cn2ccnc2C)nc2cc(NC(=O)CC)ccc21	-14	99	.	.
O=S(=O)(c1cccs1)N1CCN(Cn2c(NCCO)nc3ccccc32)CC1	-11	.	84	91
CN=C(C)/C(C(=O)OC)=C(\O)c1cccs1	0	107	106	96
COc1ccc(OC(=O)CSc2nnc(-c3ccc(F)cc3)o2)cc1	4	98	101	89
O=C(NC1CCCC1)c1sc(=S)n2c1[nH]c(=O)c1ccccc12	2	103	69	42

Taken from above:
HCMV NEC inh result of CCCn1c(Cn2ccnc2C)nc2cc(NC(=O)CC)ccc21 stands at -14
Sa growth 42C second temp result of CCSc1nnc2n(CC)c3ccccc3n12 stands at 78

(more compounds)
SMILES	HCMV NEC inh	GIV Gai3 FP	Sa growth 42C	Sa growth 42C second temp
Cc1ccc(N2C(=O)/C(=C/c3ccc(OCC(=O)O)c(Br)c3)C(=O)NC2=S)cc1	-28	82*	.	.
CCc1cccc(C)c1NC(=O)Cn1cc2c(n1)CCCCC2	14	100	104	101
Cc1ccc(Nc2nc(N)nc(CN3CCCCCC3)n2)c(C)c1	19	103	112	95
CCCc1nc2nc[nH]n2c(=O)c1NS(=O)(=O)c1ccc(OC)cc1	5	106	.	.
CC(=O)Nc1cccc(Oc2ccc3c(c2)C(=O)N(c2ccc(Oc4ccc(C)c(C)c4)cc2)C3=O)c1	.	99	113	83
N#Cc1ccccc1OCC(=O)c1ccc2c(c1)OCCO2	-63	.	93	60
Cc1ccc(NC(=O)C2CCCN(S(=O)(=O)c3ccc4c(c3)CCCC(=O)N4)C2)cc1N(C)C (stereo unspecified)	.	108	110	79
COc1ccc(Nc2cc(=O)oc3ccccc23)cc1	23	103	92	90
CC(NC(=O)CCc1cccs1)c1ccc(-n2ccnc2)cc1 (stereo unspecified)	-7	.	109	104
COc1ccc2cc3cc(C(=O)NCc4cccs4)sc3nc2c1	.	104	80	71
CCOC(=O)N1CCC(N2C(=O)c3ccccc3C2Nc2ccc(CC)cc2)CC1 (stereo unspecified)	-12	109	78	48
O=C1/C(=C\c2cccs2)SC(=S)N1CCCC(=O)N1CCCc2ccccc21	.	99	104	89
CCOC(=O)c1c(C)n(-c2ccccc2)c2ccc(OC(=O)c3ccccc3Cl)cc12	-40	108	97	86
CCOC(=O)c1c(SCC(=O)Nc2cccc(C)c2C)nc(=O)[nH]c1C	.	104	108	90
COc1ccccc1/C=C1/C(=O)ON=C1C	.	97	76	76
O=C(Nc1ccc(C(F)(F)F)nc1OCc1ccccc1)c1ccccc1	-11	.	82	93
COc1ccc(-n2c(=O)c3c4c(sc3n3c(SCCC(C)C)nnc23)COC(C(C)C)C4)cc1 (stereo unspecified)	-16	105	103	94
Brc1ccc(CNc2ccc3cn[nH]c3c2)s1	56*	116	106	19
O=C(O)CC1(CC(=O)NCc2ccccn2)CCCCC1	-52	99	102	90
O=C(O)c1c2c(nc3ccccc13)CSc1ccc(Cl)cc1-2	-43	106	85	89
CC(C)Cn1c(N2CCN(C(=O)Nc3ccc(Cl)cc3)CC2)nc2ccccc21	-3	104	110	85
CCN(CC)C(=O)c1cc2sc3ccccc3c2s1	-24	.	110	90
CSc1oc(-c2ccc(F)cc2)nc1S(=O)(=O)c1ccc(Br)cc1	-12	105	92	92
O=C(COc1ccccc1Cl)N1CCCc2ccccc21	.	103	114	82
CC1(C)CC(=O)C(=Cc2c[nH]c3ccccc23)C(=O)C1	-36	97	88	78
NC(=O)C(=O)O	-27	95	.	.
Cc1ccccc1-c1nnc(N(C)C(=O)C2CC2)s1	-7	102	105	77
COc1ccc(NC(=O)c2cc(S(=O)(=O)N3CCOCC3)cn2C)cc1Cl	10	106	90	89
Cc1ccc2nc(N3CCN(C(=O)CCC(=O)O)CC3)nc(-c3ccccc3)c2c1	-33	95	.	.
Cc1nnc(SCCCCSc2nnc(C)n2N)n1N	26	109	94	97
CCCn1c(=O)[nH]c(=O)c2c(C(=O)O)cc(-c3ccccc3)nc21	-4	.	104	102
Cn1c(=O)c2c(C(=O)NCCCN3CCOCC3)cc(=O)n(C)c2n(C)c1=O	0	99	.	.
CCNc1nc2ccccn2c(=O)c1/C=C1\SC(=S)N(Cc2ccco2)C1=O	-11	-75*	102	77
O=C(CSc1nnc2c(n1)CCCC2)c1ccc(Cl)cc1	18	95	83	47
Cn1c(=O)n(C)c2cc(C=C3C(=O)c4ccccc4C3=O)ccc21	6	103	103	115
O=C(c1cccs1)N(c1ccc(F)cc1)c1nc2ccccc2s1	-6	.	93	87
O=C1c2ccccc2C(=O)N1CCc1c[nH]c2ccc(O)cc12	-50	97	96	84
COc1ccc(C2Nc3ccccc3C(=O)N2Cc2ccco2)cc1COc1ccc(F)cc1 (stereo unspecified)	-14	105	.	.
N#CCSc1ncnc2ccccc12	-14	.	80	91
COc1ccc(OCC(=O)Nc2ccncc2)cc1	-8	.	83	96
CC1N=C2c3ccccc3N=C(SC(C)C(=O)Nc3ccccc3Cl)N2C1=O (stereo unspecified)	-7	110	.	.
Cc1cccc2c(N=NC(=O)OC(C)(C)C)c(O)[nH]c12	-3	.	99	98
Cc1nc2cc3ccccc3cc2c(=O)[nH]1	-68	108	111	82
O=C(c1nc(-c2ccc(Cl)cc2)n2c1CCCCC2)N1CCN(c2ccccc2F)CC1	.	107	125	101
COc1ccc(C(=O)CCC(=O)NC2=NCCS2)cc1	.	126	91	88
CC1(CCc2ccc3c(c2)OCO3)NC(=O)c2ccccc2N1 (stereo unspecified)	-3	102	84	90
Cc1c(C)n(-c2nccs2)c2ncn3nc(-c4ccc(C(C)(C)C)cc4)nc3c12	1	109	.	.
CCOC(=O)C1CCN(C(=O)c2cc3ccc4ccc(C)[nH]c4c3n2)CC1	-4	100&101	79	91
CCN(CC(=O)Nc1ccccc1C(=O)Nc1ccccc1)CC(=O)NC1CCS(=O)(=O)C1 (stereo unspecified)	-25	.	101	95
COC(=O)c1cnn2c(C)c(Cc3ccccc3)c(C)nc12	.	108	114	92
O=C1NCCc2c1[nH]c1c(Br)cc3c(c21)OCCO3	-21	107	.	.
COc1cccc(C2Sc3ccccc3NC3=C2C(=O)c2ccccc23)c1OC (stereo unspecified)	-17	106	104	84
Cn1c(=O)n(CC(=O)O)c(=O)c2c1nc1n2CCCN1C1CCCCC1	-15	95	.	.
O=C(Nc1ccc2c(c1)OCCO2)c1ccc(Nc2ccc(-c3ccc(F)cc3)nn2)cc1	-14	101	.	.
Nc1ccc(C(=O)Nc2ccc(O)c(-c3nc4ccccc4o3)c2)cc1	.	101	104	64
N#CCCS(=O)(=O)c1ccc(Cc2ccc(S(=O)(=O)CCC#N)cc2)cc1	-4	111	74	81
CCSc1nc2c(c(=O)n1Cc1ccco1)C1(CCCCC1)Cc1ccccc1-2	-24	101	87	75
COc1ccc(CNC(=O)c2nn3c(C(F)(F)F)cc(-c4ccco4)nc3c2Cl)cc1	-2	101	.	.
CCNc1nc(NCC)nc(NS(=O)(=O)c2ccc(C)cc2)n1	-16	101	.	.
COc1cccc(C(=O)NCc2ccc3[nH]c4c(c3c2)CCCC4)c1	.	104	130	90

Gathered by group: the entries above with bromine (5)
SMILES	HCMV NEC inh	GIV Gai3 FP	Sa growth 42C	Sa growth 42C second temp
CN1C(=O)S/C(=C\c2ccccc2Br)C1=O	-55	97	85	91
Cc1ccc(N2C(=O)/C(=C/c3ccc(OCC(=O)O)c(Br)c3)C(=O)NC2=S)cc1	-28	82*	.	.
Brc1ccc(CNc2ccc3cn[nH]c3c2)s1	56*	116	106	19
CSc1oc(-c2ccc(F)cc2)nc1S(=O)(=O)c1ccc(Br)cc1	-12	105	92	92
O=C1NCCc2c1[nH]c1c(Br)cc3c(c21)OCCO3	-21	107	.	.

(continued)
SMILES	HCMV NEC inh	GIV Gai3 FP	Sa growth 42C	Sa growth 42C second temp
O=C(NC1=NCCS1)[C@H](Cc1ccccc1)N1C(=O)c2ccccc2C1=O	-16	.	90	99
Cc1ccc(N2C(=O)CCS2(=O)=O)cc1S(=O)(=O)N1CCC(C)CC1	-12	104	.	.
COc1ccccc1Nc1nc2nonc2nc1N1CCCCC1C (stereo unspecified)	7	104	.	.
CC1(C)CC(=O)C2=C(C1)OC(c1ccccc1)(C(C)(C)C)NC2=O (stereo unspecified)	-13	.	109	85
Cc1cc(NS(=O)(=O)c2ccc(N3C(=O)C=CC3=O)cc2)no1	35	97	89	92
COC(=O)c1ccc(CSc2cc(C)[nH]c(=O)n2)o1	-11	107	83	91
O=C(O)CC1C(=O)N(c2ccccc2)C(=S)N1c1ccccc1 (stereo unspecified)	.	99	99	104
COc1ccc(CCNC(=O)CS(=O)(=O)Cc2nc(-c3cccc(Cl)c3)oc2C)cc1OC	-17	97	95	91
O=C(O)CCC(=O)Nc1ccc(Oc2ncnc3cc(Cl)ccc23)nc1	-9	101	98	95
O=C(NC1CC1)C1=COCCO1	-29	.	96	95
CCOc1ccc(C2C(C(=O)Nc3ccccc3OC)=C(C)Nc3c(C(=O)Nc4cccc(C)c4)cnn32)cc1 (stereo unspecified)	.	100	114	92
COc1ccc(-c2nc(SCC(=O)Nc3nccs3)c(-c3ccccc3)[nH]2)cc1	-9	100	.	.
COn1c(=O)c(-c2ccccc2)[n+]([O-])c2ccccc21	-34	99	.	.
N#C/C(C(=O)Nc1ccc(SC(F)F)cc1)=c1/s/c(=C\c2ccco2)c(=O)n1-c1ccccc1	-5	.	82	88
O=C(COc1ccc(F)cc1)NCCN1CCOCC1	-14	.	115	88

Single records, from the list above.
`COn1c(=O)c(-c2ccccc2)[n+]([O-])c2ccccc21` in the list: HCMV NEC inh = -34; GIV Gai3 FP = 99; Sa growth 42C = .; Sa growth 42C second temp = .
`CC1(C)CC(=O)C2=C(C1)OC(c1ccccc1)(C(C)(C)C)NC2=O` (stereo unspecified) in the list: HCMV NEC inh = -13; GIV Gai3 FP = .; Sa growth 42C = 109; Sa growth 42C second temp = 85
`COc1ccccc1Nc1nc2nonc2nc1N1CCCCC1C` (stereo unspecified) in the list: HCMV NEC inh = 7; GIV Gai3 FP = 104; Sa growth 42C = .; Sa growth 42C second temp = .
